Screens: PubChem, National Center for Advancing Translational Sciences (NCATS)
TRPML1 inh: blocks the human TRPML1 channel. activity change, negative = inhibition, % (no concentration beside the values). 0.02% of 390,000 active. TRPML1-inducible cells, Ca2+ dye fluorescence, FDSS; hits give low values; inhibition of EC80 agonist-evoked calcium signal. Q9GZU1. AID 624415; in the data active means activity change below about -50%; inconclusive means about -30% to -50%; inactive means above about -30%;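 note: stimulus is agonist 54-4 at its EC80 concentration; % is set by controls: 0 for no effect and ±100 for the full control effect; compound concentration not given in the record; the text of the record puts the active cut at -80%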
Target sequence (Q9GZU1 whole entry, looked up): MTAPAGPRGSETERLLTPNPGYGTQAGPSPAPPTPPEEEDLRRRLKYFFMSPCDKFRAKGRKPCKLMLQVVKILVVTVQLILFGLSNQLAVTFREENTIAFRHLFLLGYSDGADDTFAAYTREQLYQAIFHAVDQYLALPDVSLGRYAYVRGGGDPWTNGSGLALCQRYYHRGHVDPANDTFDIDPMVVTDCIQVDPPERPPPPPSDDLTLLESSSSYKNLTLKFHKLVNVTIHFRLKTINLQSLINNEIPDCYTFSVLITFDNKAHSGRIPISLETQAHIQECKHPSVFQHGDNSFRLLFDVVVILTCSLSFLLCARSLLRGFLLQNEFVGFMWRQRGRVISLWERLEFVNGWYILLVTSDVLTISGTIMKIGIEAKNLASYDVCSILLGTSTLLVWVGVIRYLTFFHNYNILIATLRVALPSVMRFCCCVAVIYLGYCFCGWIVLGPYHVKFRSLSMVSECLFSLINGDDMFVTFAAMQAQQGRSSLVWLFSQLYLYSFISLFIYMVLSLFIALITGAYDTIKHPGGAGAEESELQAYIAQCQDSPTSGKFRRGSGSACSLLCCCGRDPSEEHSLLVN
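Calcium fluorescence in TRPML1-DL cells induced overnight with Tet: a 110 s read after compound pin addition, then a 110 s antagonist read after challenge with 54-4 at 4 uM final (EC80).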
gsp antagonist: antagonizes gsp, the McCune-Albright syndrome mutation. gsp-mutant cells, cAMP HTRF, 30 min; control for the full effect not named in the record. Potency, µM (doses to about 76.9 µM), inactives show at the top dose activity change, negative = inhibition, hits mostly inhibitors. 0.4% of 340,000 active. AID 624288; active = falling curve of any shape with a large fitted effect; inconclusive = falling curve, mostly with a smaller effect; inactive = flat or rising curve; cell line not stated here;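 note: intracellular cAMP measured with PDE inhibitor Ro 20-1724 present during compound exposure; potency is the fitted concentration of half-maximal effect; % is set by controls: 0 for no effect and ±100 for the full control effect; nearly all actives have a fitted effect of over 65% in size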
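Cells in G418 medium, seeded 16-24 h, 37C; buffer exchange to DPBS + 1 mM CaCl2, 0.5 mM MgCl2, 0.05% BSA; cpds in DMSO + […] (300 uM stock), 30 min 37C; HTRF cAMP detection.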
ClpP mod: qHTS Assay for Activators of ClpP; 1.9% of 340,000 active; AID 651965, 2013; Potency, µM (titrated, usually from 57.5 µM), inactives show at the top dose activity change, negative = active; purified B. subtilis ClpP, FRET peptide cleavage, 20 min; active = well fitted falling curve with a large enough effect; inconclusive = small, poorly fitted or top-dose-only effect; inactive = no such curve, though single readings can be large or run the other way; note: potency is the fitted concentration of half-maximal effect; the source files actives as falling curves though it sought activators and does not explain the sign; nearly all actives have a fitted effect of over 65% in size; many hits overshoot -100%
Target sequence (P80244 whole entry, looked up): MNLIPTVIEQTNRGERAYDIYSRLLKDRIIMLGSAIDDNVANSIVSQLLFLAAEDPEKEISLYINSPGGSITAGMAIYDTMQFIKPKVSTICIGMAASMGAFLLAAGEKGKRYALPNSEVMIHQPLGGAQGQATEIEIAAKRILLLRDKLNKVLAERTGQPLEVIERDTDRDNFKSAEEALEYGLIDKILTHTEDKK
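Buffer: 100 mM Tris/HCl pH8, 100 mM KCl, 0.05% low protease BSA, 2.5% glycerol, 0.01% Tween-20. ClpP 10 microg/mL final; 20 min RT; delta FRET normalized to ADEP and DMSO controls.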
TRPV1 potentiator: enhances activation of the human vanilloid receptor TRPV1; Q8NER1; TRPV1-expressing cells, Fluo-8 calcium influx, capsaicin EC20 potentiation; host cell line not named in the record; control for the full effect not named in the record; potentiation, % at 8.33 µM; 0.02% of 320,000 active; active means potentiation above 80%; inconclusive means 30% to 80%; inactive means below 30%; note: 0% is about no effect
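Fluo-8 calcium influx in TRPV1-expressing cells, kinetic read (ex 480/em 520 nm). Compound added and read 3 min for agonist activity, followed by capsaicin at EC20 final and 2 min further read for enhancement.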
gsp agonist: activates gsp, the McCune-Albright syndrome mutation | gsp mutant cells, cAMP HTRF, 30 min; control for the full effect not named in the record | Potency, µM (highest dose often 76.9 µM), for the others: at the highest dose activation (cAMP increase), usual class: activators | 0.13% of 340,000 active; active = well fitted activation curve with a large enough effect; inconclusive = small, poorly fitted or top-dose-only effect, or another doubt; inactive = no such curve, though single readings can be large or run the other way; cell line not stated here;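 note: phosphodiesterase inhibitor Ro 20-1724 added with compounds to block cAMP breakdown; potency is the fitted concentration of half-maximal effect; nearly all actives have a fitted effect of over 60% in size; about a fifth of the inactives were tested at one dose only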
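Cells stably selected in G418 were plated at 2000/well, grown 16-24 hr, then given compounds in DMSO with the PDE inhibitor […] (300 uM solution added) for 30 min at 37C; cAMP was read by HTRF.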
Sfp PPTase inh: Sfp phosphopantetheinyl transferase inhibition | Biochemical Sfp PPTase activity, qHTS | Potency, µM, for inactives: max response, negative = inhibition, hits mostly inhibitors | 3.5% of 310,000 active | AID 1490; active = well fitted inhibition curve with a large enough effect; inconclusive = small, poorly fitted or top-dose-only effect, or another doubt; inactive = no such curve, though single readings can be large or run the other way;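 note: the enzyme is Sfp with the accession as filed and its product quenches rhodamine fluorescence; potency is the fitted concentration of half-maximal effect; 0% = enzyme reaction without inhibitor and -100% = no enzyme wells; top concentration of the series not given in the record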
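Sfp 15 nM + cpd, 15 min RT; start w/ rhodamine-CoA 5 uM, BHQ-2-YbbR 12.5 uM (final); 50 mM Hepes pH 7.6, 10 mM MgCl2, 0.01% NP-40, 0.01% BSA; read 525/598 nm at 0 and 30 min.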
Menin-MLL FL inh: inhibitors of human menin-MLL interaction, wild-type MLL peptide; FP activity change, % at 61.4 µM; Fluorescence polarization, fluorescein-MLL peptide displacement from menin; 290,000 tested, under 10 active; inconclusive = falling polarisation curve, or a change in total fluorescence; inactive = total fluorescence flat and polarisation flat or rising; no compound was filed as active; the % refers to the polarisation; negative = inhibition;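 note: % of control where 0% means no effect; inhibitors lower the polarisation; unlabelled MLL peptide was the positive control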
Numbers without * were called inactive; ? = inconclusive; / = no result given; & = joins results of further samples; [ ] = remark or other dose.

SMILES	TRPML1 inh	gsp antagonist	ClpP mod	TRPV1 potentiator	gsp agonist	Sfp PPTase inh	Menin-MLL FL inh
Cc1ccc(Oc2cc(NC(=O)CCCn3nc([N+](=O)[O-])cc3C)cc([N+](=O)[O-])c2)cc1	12	-16%	-15%	1	18%	9%	9.6
O=C(NCCc1ccc(Cl)cc1)C1CC(=O)N(C2CCCCC2)C1 (stereo not drawn)	-19	4%	0.4%	/	-24%	/	/
COc1ccc2c(=O)c3c(=O)n(Cc4ccco4)c(C(C)C)nc3oc2c1	-1	44%[activator]	-0.3%	-4	-6%	?	0.7
Cc1cccc(N(CC(=O)N=Nc2c(O)[nH]c3ccccc23)S(C)(=O)=O)c1C	5	-14%	-0.8%	-3	17%	-7%	0.7
Cc1ccc(-c2[nH]ncc2CNCCc2cnn(-c3ccccc3)c2)cc1C	-10	2%	/	-10	0%[15.4 µM]	79µM*	1.8
COC(=O)COc1ccc(/C=N/NC(=O)c2ccc(N(Cc3ccccc3)S(C)(=O)=O)cc2)cc1	-11	?	32µM*	-2	-3%	5%	0.4
Cc1ccc(O)c(-c2cc(C(=O)Nc3cccnc3)[nH]n2)c1	-1	-6%	/	4	1%[15.4 µM]	13%	1.1
COc1cc(Cl)c(C)cc1NC(=O)CN1CCCCCC1	0	4%	/	-6	-11%[15.4 µM]	2%	1.3
O=C(N/N=C/c1c[nH]c2ccccc12)C1CC(=O)N(c2ccccc2)C1 (stereo not drawn)	20	4%	0.9%	7	-22%	28%	6.8
COc1ccc(C(C)=O)cc1COC(=O)Cc1cc(OC)c(OC)c(OC)c1	-6	-7%	/	0	25%	11%	-6.8
Cc1sc2ncnc(N3CCN(C(=O)c4ccco4)CC3)c2c1C	7	-23%	/	-7	-2%	-5%	-1.8
COCCCN1C(=O)c2ccc(C(=O)Nc3ccc(OC)cc3)cc2C1=O	3	-11%	1.0%	-17	?	11%	11
O=C(O)CCCCCNS(=O)(=O)c1c(Cl)cccc1Cl	-9	-3%	0.5%	18	10%	5%	-7.4
O=C(Nc1ccccc1C(=O)N1CCCCCC1)c1ccccc1Cl	10	-4%	/	2	-2%[15.4 µM]	-3%	-5.2
CC(=O)N1CCCc2cc(S(=O)(=O)N3CCCC(C(=O)N4CCN(c5ccccc5)CC4)C3)ccc21 (stereo not drawn)	-5&14	35µM*	-0.1%&-0.8%	-2	-3%	9%	/
CCC/C(C)=N\Nc1nc2c(c(=O)n(C)c(=O)n2C)n1C	9	-16%	-0.6%	6	0%	40µM*	-0.2
Cc1cccc(-n2nnnc2SCn2nnc3ccccc3c2=O)c1	13	-16%	-0.8%	8	-32%[inhibitor]	3%	0.4
CC1CN(C(=O)c2ccn(C)n2)CC(C)O1 (stereo not drawn)	-28	14%	-1.5%	9	21%	4%	5.0
O=C(CSCc1ccccc1Cl)Nc1ccc2c(c1)OCCO2	-3	-15%	0.1%	-14	-8%	-6%	1.5
CCCc1ccc(C(=O)CCC(=O)O)cc1	-8	0%	0.3%	16	-26%	-6%	9.1
CC(=O)n1c2ccccc2c2nc(NC(C)C)sc21	-8	-5%	1.4%	-6	-32%[inhibitor]	?	0.0
CC(=O)Nc1ccc(NC(=O)COC(=O)/C(=C/c2ccccc2)n2nnnc2C)cc1	0	-20%	2.2%	-8	-32%[inhibitor]	3%	/
Oc1cccc(/C=N/Nc2cccc3cccnc23)c1	1	-7%	/	-18	-7%[15.4 µM]	45µM*	2.0
O=C(NC1CC1)C1CCN(c2ncnc3c2sc2cccc(F)c23)CC1	8	-4%	-7.1%	1	?	32%[activator]	0.8
COc1ccc(OC)c(-c2csc(NC(=O)CN3C(=O)C4CCCCC4C3=O)n2)c1 (stereo not drawn)	16	-6%	-4.6%	4	2%[15.4 µM]	/	/
COc1c(Br)cc(C(N)=O)cc1OCc1ccccc1	15	-7%	2.3%	4	?	6%	/
Cc1ccc(S(=O)(=O)N2CCCCC2)cc1NC(=O)Cn1cc(C(F)(F)F)ccc1=O	1	-9%	-2.6%	-5	31%	/	/
CC1=Nc2cc(C(=O)NCCCN3CCOCC3)ccc2Sc2c(C)ccc(C)c21	15	1%	-1.7%	-12	11%	-2%	0.1
COc1cc(C)c(S(=O)(=O)Nc2ccc(CC(=O)O)cc2)cc1C	-8	7%	-4.1%	21	-3%	11%	-1.0
COCCCNC(=S)N(CCO)Cc1cc2cc3c(cc2[nH]c1=O)OCCO3	20	1%	4.3%	12	20%	6%	-4.5
CC(=O)N1CCc2cc(S(=O)(=O)NC(CC(C)C)C(=O)N3CCn4c3nc3ccccc34)ccc21 (stereo not drawn)	2	-22%	-2.1%	-18	0%	20%	0.0
O=C(Cc1ccc2c(c1)OCCO2)Nc1cc(Cl)ccc1N1CCOCC1	0	0%	/	-29	5%[15.4 µM]	/	/
CN1CCN(c2ccc(Cl)cc2NC(=O)CC2OC(=O)c3ccccc32)CC1 (stereo not drawn)	11	9%	-1.0%	-1	7%[15.4 µM]	/	/
O=C(COc1ncnc2sccc12)NC1CCCCC1	2	7%	/	-4	8%[15.4 µM]	/	/
COc1cc(S(=O)(=O)Nc2ccncc2)ccc1F	1	2%	/	-2	-3%[15.4 µM]	0%	-7.3
Cc1ccc(OCC(=O)NCc2cccs2)cc1	6	2%	0.2%	-24	2%	-4%	4.0
Nc1cc(Cl)ccc1N1CCCCCC1	-6	-6%	/	4	-12%[15.4 µM]	-1%	0.0
CC1CN(c2oc(-c3ccccc3Cl)nc2C#N)CC(C)O1 (stereo not drawn)	-5	2%	?	-5	-35%[inhibitor]	6%	-0.6
COc1ccccc1NC(=O)c1ccc(NC(=O)COC(=O)C2CC2C)cc1 (stereo not drawn)	16	-8%	-0.5%	0	-7%	-10%	1.7
O=C(COc1cc2oc(=O)c3c(c2cc1Cl)CCC3)NCCCN1CCCC1=O	-4	-2%	3.7%	10	?	16%	/
CC(=O)c1cccc(NC(=O)c2ccccc2-c2ccccc2C(=O)O)c1	4	9%	25%	13	-57%[inhibitor]	5%	-0.6
CC(C)NC1(C#N)CCN(Cc2ccccc2)CC1	12	15%	/	/	-2%	/	/
CCC(=O)N1CCc2cc(S(=O)(=O)NCCCN(CC)Cc3ccccc3)ccc21	-13	-1%	0.3%	6	4%	14%	-1.8
O=C(NCC(=O)N(c1cccnc1)C(C(=O)NC1CCCCC1)c1ccccc1)c1ccco1 (stereo not drawn)	1	5%	/	1	-18%	-1%	-3.0
S=C(Nc1ccccc1)N1CCC(Cc2ccccc2)CC1	-10	3%	-2.1%	-12	-2%[15.4 µM]	9%	2.0
Cc1ccc(NC(=O)CNC(=O)c2cccc(C)c2)nc1	9	11%	/	-12	-7%[15.4 µM]	/	/
O=C1CSC(=S)N1/N=C/c1ccc2c(c1)OCCO2	-11	1%	/	-6	29%[15.4 µM]	2%	8.9
Cc1cccc(NC(=S)N/N=C/c2cccn2Cc2ccc(F)cc2)c1	1	-2%	/	3	16%[15.4 µM]	-15%	-0.2
CC(=O)c1ccc(OCC(=O)NCCC2=CCCCC2)cc1	2	5%	-3.1%	/	2%	/	/
O=C1NC(=O)C2(COC(c3cccc([N+](=O)[O-])c3)OC2)S1 (stereo not drawn)	-8	-6%	/	-14	-1%[15.4 µM]	8%	-1.3
(cont.)
SMILES	TRPML1 inh	gsp antagonist	ClpP mod	TRPV1 potentiator	gsp agonist	Sfp PPTase inh	Menin-MLL FL inh
Cc1ccc(CNC(=O)C2CCN(S(=O)(=O)c3cccs3)CC2)o1	6	-4%	-2.3%	5	-2%	18µM*	1.8
Cc1cccc(N2CCN(c3ccc(N4C(=O)CCCC4=O)cc3[N+](=O)[O-])CC2)c1C	-3	12%	1.2%	14	-7%	-7%	3.5
CC(C)C[C@@H](CO)N1CCN(Cc2cccc(C#N)c2)CCC1=O	1	-2%	2.7%&-0.8%	-11	/	6%	0.5
COc1cc(C(=O)N2C[C@H]3CC[C@H]2C3)ccc1OC1CCN(C(C)=O)CC1	-5	-2%	-1.5%	2	8%[15.4 µM]	8%	1.6
O=C(NCCCN1CCOCC1)c1ccc(CNS(=O)(=O)c2ccc(Br)cc2)cc1	4	8%	2.5%	13	-10%[15.4 µM]	-2%	1.8
COc1ccc(N=C(N)N=C(N)N)c(OC)c1	-12	12%	0.9%	12	-9%	-13%	1.0
C(#Cc1ccccc1)C[N+]1(CC#Cc2ccccc2)CCCC1	-17	7%	-2.3%	2	-5%	1%	3.8
C=CCN(CCNP(=O)(OCC)OCC)CP(=O)(OCC)OCC	8	13%	1.3%	0	-19%	33%[activator]	3.3
Cc1cc(O)c(C(=O)/C=C/c2ccccc2O)c(=O)o1	7	-14%	0.0%	6	-87%[inhibitor]	-14%	?
CCCCN(CC)C(=O)CN(C)S(=O)(=O)c1cccc2nsnc12	-13	0%	-2.6%	-8	17%	14%	2.6
CCOC(=O)c1c(C)[nH]c(C(=O)OCc2nc3ccsc3c(=O)[nH]2)c1C	-5	/	-2.7%	/	?	/	/
COc1cccc(CNCc2cc(OC)cc(OC)c2)c1	24	5%	-1.1%	?	10%	-2%	-1.8
CC(=O)OCC(=O)Nc1ccc(Br)c(C)c1	-6	-3%	-3.7%	-13	-6%[15.4 µM]	20%	-5.0
COc1ccc2oc(C(=O)N3CCN(S(=O)(=O)c4ccc(F)cc4)CC3)c(C)c2c1	15	-14%	/	/	?	/	/
CC(C)(C)NC(=O)C(c1ccccc1)N(Cc1ccco1)C(=O)c1csnn1 (stereo not drawn)	-7	-26%	1.3%	-7	1%	9%	2.2
N#CCc1ccc(OC(=O)Nc2ccccc2)cc1	-18	8%	/	0	26%	9%	0.5
Cc1c(NC(=O)Nc2cccc(C(F)(F)F)c2)c(=O)n(-c2ccccc2)n1C	-6	-10%	0.7%	9	29%	18%	/
O=C(CN1C(=O)c2ccccc2C1=O)NN1C(=O)c2ccccc2C1=O	4	13%	-2.3%	5	19%	45µM*	3.6
O=C(Nc1ccc2c(c1)OCCO2)C1CCN(c2cnccn2)CC1	19	8%	-15%	8	0%	15%	1.9
